Rango-impB inh – prevents formation of the Rango-importin beta complex | hit rate 0.031% among 340,000 | Rango CFP/YFP FRET sensor + importin beta, 45 min | AID 540263 | Potency, µM (highest dose often 92.2 µM), inactives show at the highest dose inhibition of complex formation | Q14974; active = rising FRET ratio curve, often small or poorly fitted; inconclusive = mostly compound fluorescence or quenching in the first reads; inactive = flat curves in all reads;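 further: potency means the concentration at half of the fitted maximal effect; 0% = DMSO wells and 100% = buffer wells lacking importin beta; nearly all actives have a fitted effect of over 15% in size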
Target sequence (Q14974 whole entry, looked up): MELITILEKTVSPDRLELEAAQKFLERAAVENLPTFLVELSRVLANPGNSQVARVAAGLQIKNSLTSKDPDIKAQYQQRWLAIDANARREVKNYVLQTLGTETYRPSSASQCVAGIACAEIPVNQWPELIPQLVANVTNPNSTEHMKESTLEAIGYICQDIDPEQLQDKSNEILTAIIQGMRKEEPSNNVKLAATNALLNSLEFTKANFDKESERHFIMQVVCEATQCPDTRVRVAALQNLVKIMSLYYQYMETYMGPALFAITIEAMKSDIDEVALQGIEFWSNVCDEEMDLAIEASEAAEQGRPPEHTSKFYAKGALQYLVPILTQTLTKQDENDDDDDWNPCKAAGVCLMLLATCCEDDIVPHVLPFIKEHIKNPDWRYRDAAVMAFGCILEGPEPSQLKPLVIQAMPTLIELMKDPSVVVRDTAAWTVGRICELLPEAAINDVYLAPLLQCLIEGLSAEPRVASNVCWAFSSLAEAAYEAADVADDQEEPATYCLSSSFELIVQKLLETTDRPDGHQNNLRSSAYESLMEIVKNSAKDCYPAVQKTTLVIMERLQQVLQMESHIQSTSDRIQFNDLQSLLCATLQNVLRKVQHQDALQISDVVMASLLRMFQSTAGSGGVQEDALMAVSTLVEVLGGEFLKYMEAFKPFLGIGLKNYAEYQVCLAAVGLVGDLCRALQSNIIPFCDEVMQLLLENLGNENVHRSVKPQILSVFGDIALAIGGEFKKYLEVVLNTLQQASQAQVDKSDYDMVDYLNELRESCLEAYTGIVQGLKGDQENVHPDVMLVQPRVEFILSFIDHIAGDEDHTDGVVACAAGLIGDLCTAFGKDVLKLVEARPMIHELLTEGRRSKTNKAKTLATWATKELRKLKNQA
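FRET biosensor Rango (snurportin 1 IBB between N-terminal EYFP and C-terminal Cerulean), 50 nM in PBS/1 mM DTT/0.02% Tween-20/0.1% BSA, preincubated 5 min RT with compound; 0.125 microM importin beta added, 45 min RT, CFP/YFP FRET ratio read.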
GLA inh pH 4.5 – alpha-galactosidase A (human) inhibition, pH 4.5. purified enzyme, 4-MU-alpha-Gal fluorescence, pH 4.5. activity change, negative = inhibition, % at 105 µM. 230,000 tested, under 10 active. AID 1467; inconclusive = small, poorly fitted or top-dose-only inhibition, or a rising curve; inactive = flat fitted curve, though single readings scatter; no compound was filed as active;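 further: 0% = full activity with enzyme and -100% = basal without enzyme; dose as in the result columns while the protocol names 77 µM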
miR-21 reporter – miR-21 reporter, rising signal; Potency, µM (series often up to 38.3 µM), for the others: at the top dose reporter change, positive = more light; 340,000 tested, under 10 active; HeLa miR-21 FLuc reporter, luciferase, 48 h; active = well fitted rising curve with a large enough effect; inconclusive = small, poorly fitted or top-dose-only effect; inactive = no such curve, though single readings can be large or run the other way;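 further: % of control where 0% means no effect; miR-21 action dims this reporter so a rising signal means less miR-21 action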
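HeLa miR-21-FLuc reporter line, endogenous miR-21; 2000 cells/well in DMEM/10% FBS; compound titration up to ~40uM final, 48 h, 37 degree Celsius; luciferase detection reagent, 15 min lysis, CCD luminescence.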
Rango release inh – inhibition of RanGTP-driven Rango-importin beta dissociation | hit rate 0.071% among 340,000 | Potency, µM (series often up to 46.1 µM), for the others: top-dose activity change, negative = inhibition | AID 540253 | O95149+P62826 | Biochemical FRET Rango-importin beta, RanGTP-induced dissociation; active means falling FRET ratio curve, often poorly fitted, with flat reads before Ran was added; inconclusive means other falling curves, or compound fluorescence or quenching; inactive means flat or rising ratio curve;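 further: potency means the concentration at half of the fitted maximal effect; % of control where 0% means no effect; nearly all actives have a fitted effect of over 45% in size; -100% = wells without RanGTP and RCC1; the record marks most hits as doubtful in a second field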
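Rango/importin beta premix (0.1/0.25 uM final), PBS + 1 mM DTT + 0.02% Tween-20 + 0.1% BSA; cpd 5 min RT; FRET pre-read; + RanGTP-RCC1 (0.6 uM Ran, 2 mM GTP, 0.2 uM RCC1); 45 min RT; FRET post-read, ex 430, em 486/530 nm.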
* = called active by the depositor; ? = inconclusive; nt = no result given; & = joins results of further samples; [ ] = dose if it differs, or a comment. These rows are one share of the data; the hit share may differ from the screen's.

Rango-impB inh	GLA inh pH 4.5	miR-21 reporter	Rango release inh	smiles
nt	3	2%	nt	NC[C@@H]1O[C@H](O[C@H]2[C@@H](O)[C@H](O[C@@H]3[C@@H](O)[C@H](N)C[C@H](N)[C@H]3O[C@H]3O[C@H](CO)[C@@H](O)[C@H](O)[C@H]3N)O[C@@H]2CO)[C@H](N)[C@@H](O)[C@@H]1O
5.2%	nt	-23%	9%	Cc1ccc(NC(=O)[C@@H](CC(C)C)NC(=O)[C@@H]2Cc3ccccc3CN2)cc1
-3.8%	-17	-7%	-8%	O=C(Nc1ccc(Cl)cc1)C(c1ccccc1)N(CCO)CCO (configuration not stated)
-3.6%	0	-42%	-5%	CCOC(=O)c1cnc2ccc(Cl)cc2c1NCCN(C)C
nt	-5&2	-5%	nt	CCCCNC(=O)C(c1ccc(OCC(=O)OC)c(C(=O)OC)c1)N(CCc1ccccc1)C(=O)CCCCCN1C(=O)NC(c2ccc(-c3ccccc3)cc2)C(C(=O)OCc2ccccc2)=C1C (configuration not stated)
5.1%	3	3%	5%	Cc1ccc(C(=O)COC(=O)c2cnccn2)cc1
-3.3%	2	-4%	34%	Clc1ccc(-c2nnc3n2CCCCC3)cc1
4.9%	1	-14%	34%	O=C(COC(=O)CNC(=O)C1CCCCC1)Nc1ccc2ccccc2c1
2.9%	3	-1%	1%	O=c1c2ccccc2cnn1Cc1n[nH]c(=S)n1-c1ccc(F)c(Cl)c1
-1.5%	-7	-10%	12%	Cc1cc(-c2ccccc2)n(-c2ccc(C(N)=O)cc2)n1
-0.4%	-7	8%	45%	CN(/N=C/c1ccc(O)cc1O)c1ncc(C(F)(F)F)cc1Cl
-1.8%	3	0%	-3%	CCOCCCNC(=O)C1CCN(S(=O)(=O)N2CCCC2)CC1
-1.4%	nt	-5%	1%	Cc1[nH]c(C)c(S(=O)(=O)N2CCN(c3cccc(Cl)c3)CC2)c1C(=O)N1CCCC1
-2.9%	nt	nt	-14%	CCOC(=O)c1c(C)[nH]c(C(=O)C(C)OC(=O)c2cnc(C)cn2)c1C (configuration not stated)
-1.9%	-18	-34%	10%	Fc1c(F)c(F)c(CSc2nc3ccccc3[nH]2)c(F)c1F
2.0%	nt	14%	9%	COc1cccc(C(=O)Nc2ccc(C(=O)c3ccncc3)cc2)c1
-0.5%	1	-11%	-17%	Cc1ccc(N2CC(C(=O)Nc3nnc(SCC(=O)Nc4cc(C)on4)s3)CC2=O)cc1 (configuration not stated)
-0.1%	nt	-46%	9%	O=[N+]([O-])c1ccc(C(O)CSC(=S)N2CCCCC2)cc1 (configuration not stated)
5.0%	4	-3%	24%	O=C(c1ccccc1NS(=O)(=O)c1cccc([N+](=O)[O-])c1)N1CCOCC1
nt	10	-13%	nt	CN(C)c1ccc(/C=N/NC(=O)CN2CCN(c3ccc(F)cc3)CC2)cc1
-0.1%	nt	-23%	-10%	Cc1ccc(C(=O)Nc2nccc(C)n2)cc1
nt	0	2%	nt	CCn1c(SCC(=O)N2CCN(c3ccccc3)CC2)nnc1-c1ccncc1
6.9%	-9	13%	1%	COc1ccccc1/C=C/C=N/N1CCN(Cc2ccc(Cl)cc2)CC1
?	9	1%	-4%	CCCCc1c(O)nc(SCC(=O)O)[nH]c1=O
?	nt	18%	?	Cc1cc(C(=O)N/N=C/c2c3ccccc3cc3ccccc23)n[nH]1
-0.1%	nt	-1%	1%	COc1ccc(N(C(=O)CNC(=O)c2ccco2)C(C(=O)NCC2CCCO2)c2ccccc2)cc1Cl (configuration not stated)
0.7%	-1	0%	18%	CCOC(=O)CSc1nnc(Cc2ccccc2)n1CC1CCCO1 (configuration not stated)
-3.0%	4	5%	0%	NC(=O)C1CCN(C(=O)Nc2csc3ccccc23)CC1
-1.6%	nt	-1%	-10%	CCOC(=O)c1ccc(S(=O)(=O)N2CCC(N3CCCCC3)CC2)cc1
-5.4%	nt	-5%	?	COc1ccc(N(C(=O)c2snc(C(N)=O)c2N)C(C(=O)NC2CCCCC2)c2ccc(C)o2)c(OC)c1 (configuration not stated)
-1.0%	2	-3%	-7%	CC(=O)c1cn(CCCCCCCn2cc(C(C)=O)c(=O)[nH]c2=O)c(=O)[nH]c1=O
-0.8%	nt	nt	20%	CN(CC(=O)Nc1ccccc1C(F)(F)F)C(=O)COc1ccccc1Cc1ccccc1
1.9%	-4	5%	-4%	Cc1ccc(NC2=NCC(Cc3ccc(Br)cc3)S2)cc1 (configuration not stated)
1.9%	nt	nt	-3%	O=C(NCC(=O)N1CCCCCCC1)c1ccc(Br)o1
0.7%	nt	-41%	-9%	COc1ccc(Cc2nc3ccc(C(=O)NCC(C)(C)OC)cc3o2)cc1
?	10	-1%	-6%	Cc1cc(-c2ccco2)n(-c2ccccc2)n1
3.3%	1	-7%	2%	COc1cc2c(cc1OC)C(c1ccc(N(C)C)cc1)CC(=O)N2 (configuration not stated)
-0.8%	7	-5%	-11%	Cc1nc(CCNC(=O)Cc2ccccc2)cs1
-2.8%	-3	-10%	-10%	CCCCSc1nnc(-c2ccc(C)cc2)c2ccccc12
?	nt	3%	1%	COc1ccc(C(=O)NCCNc2ccc([N+](=O)[O-])cn2)cc1
2.0%	-5[21.1 µM]	-1%	-15%	CCOC(=O)N1CCC(Nc2ccc(N3C(=O)C4CCCCC4C3=O)cc2[N+](=O)[O-])CC1 (configuration not stated)
0.8%	7	-5%	1%	Cn1nnnc1SCCNCc1ccccc1F
-2.9%	8	-6%	-5%	O=C(CCc1nnc(Cc2c[nH]c3ccccc23)o1)NC(C1CC1)C1CC1
-1.3%	-5	0%	-1%	Cc1cnc(C(=O)OCC(=O)Nc2cccc(S(=O)(=O)N3CCCCC3)c2)cn1
2.7%	nt	nt	0%	O=C(O)/C(=C\c1ccccc1)c1ccc2ccccc2c1

Laid out differently: 5 of the compounds above.
Molecule,Rango-impB inh,GLA inh pH 4.5,miR-21 reporter,Rango release inh
COc1cc2c(cc1OC)C(c1ccc(N(C)C)cc1)CC(=O)N2 (configuration not stated),3.3%,1,-7%,2%
Cc1nc(CCNC(=O)Cc2ccccc2)cs1,-0.8%,7,-5%,-11%
CCCCSc1nnc(-c2ccc(C)cc2)c2ccccc12,-2.8%,-3,-10%,-10%
COc1ccc(C(=O)NCCNc2ccc([N+](=O)[O-])cn2)cc1,?,nt,3%,1%
CCOC(=O)N1CCC(Nc2ccc(N3C(=O)C4CCCCC4C3=O)cc2[N+](=O)[O-])CC1 (configuration not stated),2.0%,-5[21.1 µM],-1%,-15%

More entries
Rango-impB inh	GLA inh pH 4.5	miR-21 reporter	Rango release inh	smiles
?	-11	1%	16%	COc1ccc(-c2cc(-c3nnc(COC(=O)CC4CC5CCC4C5)o3)c3ccccc3n2)cc1OC (configuration not stated)
-2.2%	-6	-4%	0%	O=C(CN1CCN(CC(=O)c2ccc(F)cc2)CC1)Nc1ccccc1Cl
1.1%	2	-1%	-6%	COc1ccc(-c2cc(C(=O)n3cnc4ccccc43)c3ccccc3n2)cc1
0.9%	nt	0%	0%	COc1nc(N(C)C)nc(N(C#N)S(=O)(=O)c2ccc(C)cc2)n1
2.7%	nt	nt	24%	CN(Cc1ccccc1)C(=O)c1ccc(NC(=O)Cc2ccc(NC(=O)C3CCCN(C(=O)C4CCC4)C3)cc2)cc1 (configuration not stated)
0.4%	nt	4%	2%	Nc1cc(C(=O)OCC(=O)NCCCc2ccccc2)ccc1Cl
1.4%	nt	2%	16%	CC12CCC(=O)N1C(C(=O)Nc1nnc(SCc3ccc(F)cc3)s1)CS2 (configuration not stated)
-2.0%	nt	30%	-13%	Cc1ccc(S(=O)(=O)/N=C2\C=C(Nc3cccc(C(=O)O)c3)C(=O)c3ccccc32)c(C)c1
?	9	0%	?	N#Cc1c2c(c(NCCN3CCOCC3)n3c1nc1ccccc13)CCCC2
0.6%	-6	27%	17%	COc1ccc(-c2cc(C#N)nc(Cl)n2)cc1
-5.2%	-4	7%	6%	COc1ccccc1NC(=S)N(CCc1c(C)[nH]c2ccccc12)Cc1cccs1
2.6%	3	-6%	1%	N#Cc1cc(-c2ccccc2)cnc1Sc1ccc(Cl)cc1
-0.9%	2	0%	5%	CCC(=O)Oc1ccc2c(=O)c(-c3ccc4ccccc4n3)c(CC)oc2c1C
-5.2%	1	-53%	-11%	O=C(NCCc1ccccc1)c1ccccc1NC(=O)C1CC=CCC1C(=O)O (configuration not stated)
3.6%	1	-5%	-9%	CCOC(=O)c1cnc(-c2ccccc2)nc1-c1ccccc1
0.8%	3	-11%	-5%	COc1ccc(OCCCC(=O)Nc2cccc([N+](=O)[O-])c2C)cc1
-0.8%	-3	-5%	-6%	O=C(C1CCC1)N1CCc2cc(S(=O)(=O)N3CCN(c4ccccn4)CC3)ccc21
2.8%	2	-6%	-6%	Cc1csc2ncc(C(=O)N(Cc3ccccc3)c3ccccn3)c(=O)n12
-2.2%	4	15%	-4%	CCC(C)C1C(C#N)=C(N)Oc2n[nH]c(-c3ccccc3)c21 (configuration not stated)
4.1%	3	-4%	-7%	COc1cc(C(=O)NCC(=O)n2nc(C)cc2C)cc(OC)c1OC
9.7%	nt	1%	25%	Cn1c(SCC(=O)N2CCCCC2)nc2c(c1=O)SCC2
0.1%	1	-11%	?	COc1ccc2[nH]c(=O)c(CN(Cc3ccco3)C(=O)c3ccccc3)cc2c1
0.0%	nt	nt	0%	CSc1ncccc1C(=O)OCC(=O)N(C)c1c(N)n(Cc2ccccc2)c(=O)[nH]c1=O
8.8%	7	-3%	-11%	COC(=O)C1=NN(C(=O)c2ccc(Cl)cc2)C(O)(c2ccccc2)C1 (configuration not stated)
-0.8%	-2	-32%	9%	COC(=O)c1ccc(COC(=O)c2ccccc2OC)cc1
-0.3%	1	-43%	-1%	COc1cccc(C(=O)O/N=C(\N)c2ccncc2)c1
1.8%	-4	-1%	-2%	CCOc1ccc(N=Cc2c(O)cc(C)oc2=O)cc1
?	2	-31%	-11%	CS(=O)(=O)N1CCN(C(=O)NC23CC4CC(CC(C4)C2)C3)CC1
-0.2%	nt	nt	2%	CN(CC(=O)NCCc1ccc(S(N)(=O)=O)cc1)CC(=O)Nc1ccc(Cl)cc1
0.0%	3	-7%	0%	CCOc1ccc2nc(Cl)c(CN(C(C)=O)C3CCCCC3)cc2c1
-0.9%	8	-4%	5%	COc1cccc(-c2nnc(SCCOc3ccc4c(C)cc(=O)oc4c3)o2)c1
-1.1%	-2	-3%	16%	O=S(=O)(Nc1cccc(-c2nnco2)c1)c1ccc(Cl)cc1
2.7%	nt	nt	-27%	CCCN(Cc1cc2cccc(C)c2[nH]c1=O)C(=O)c1cccc(OC)c1
-0.9%	nt	11%	-5%	Cc1ccc(C)c(S(=O)(=O)N2CCCOC2CNC(=O)C(=O)NCCc2ccco2)c1 (configuration not stated)
-1.4%	1	2%	-9%	Nc1nc(SCC(=O)Nc2ccccc2Oc2ccccc2)n[nH]1
-2.3%	nt	1%	32%	Cc1ccc2c(c1)cc(C(=O)N1CCN(c3ccccn3)CC1)n2C
nt	-7	1%	nt	Cc1cc(C)n2c(SCC(=O)Nc3ccc(Cl)cn3)nnc2n1
-5.4%	nt	0%	-18%	Cc1ccc(Cn2nnc3c(=O)[nH]c(C4CCN(S(=O)(=O)c5ccc(S(=O)(=O)NC6CC6)cc5)CC4)nc32)cc1
-1.4%	-6	0%	-16%	CCn1nc(C)c(Oc2ccccc2O)c1C
1.7%	2	0%	-6%	O=C(O)COc1ccccc1/C=C1\SC(=Nc2ccc(F)cc2)N(c2ccc(F)cc2)C1=O
-5.2%	nt	-22%	-6%	O=C(Cc1ccccc1)NC(=S)Nc1ccc(OC(F)F)cc1

Fetched by compound from the entries so far, two records:
Rango-impB inh	GLA inh pH 4.5	miR-21 reporter	Rango release inh	smiles
-0.9%	nt	11%	-5%	Cc1ccc(C)c(S(=O)(=O)N2CCCOC2CNC(=O)C(=O)NCCc2ccco2)c1 (configuration not stated)
-0.9%	8	-4%	5%	COc1cccc(-c2nnc(SCCOc3ccc4c(C)cc(=O)oc4c3)o2)c1
